Bioassay records deposited in PubChem by several laboratories.
YopH inh: inhibitors of Yersinia enterocolitica YopH tyrosine phosphatase | inhibition, %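 (about 10 µM by stock and volumes)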 | 140,000 tested, 0.16% active | fluorescence Ex485/Em525;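 active = inhibition of 50% or more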;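 note: controls were vehicle for no effect and minimum signal wells for full effect; inactives centre near -20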
Arbovirus anti: antivirals against arbovirus infection; arbovirus infection cell-based antiviral screen; inhibition, % at 10 µM; 200,000 tested, 0.37% active; AID 1251;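 active = inhibition from about 30%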;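 note: bluetongue infection of BSR cells; cell survival read as ATP light after 72 h; 0% = infected wells without compound and 100% = uninfected wells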
Mtb H37Rv: M. tuberculosis H37Rv growth inhibitors, H37Rv strain (AID 1626); M. tuberculosis H37Rv growth inhibition; higher % means a stronger effect; inhibition, % at 10 µM, or IC50 in µM where a hit was titrated; 220,000 tested, 0.95% active;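 active = confirmed in a dose series; inconclusive = inhibition above 80% but not taken into the dose series; inactive = below 80% or under 30% at every dose of the series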;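 note: bacteria incubated seven days before Alamar blue readout; 0% = bacteria only wells and 100% = bacteria with antibiotic wells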
RecA splice inh: blocks M. tuberculosis RecA intein splicing | P9WHJ3 | AID 2221 | cell-free RecA intein splicing, fluorescence | inhibition, %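 (about 9 µM by stock and volumes)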 | 290,000 tested, 0.75% active; in the data active = inhibition above about 30%; inconclusive = no clear call, values can overlap the other calls;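 note: 0% = vehicle wells and 100% = reference inhibitor control wells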
Target sequence (P9WHJ3 whole entry, looked up, canonical isoform): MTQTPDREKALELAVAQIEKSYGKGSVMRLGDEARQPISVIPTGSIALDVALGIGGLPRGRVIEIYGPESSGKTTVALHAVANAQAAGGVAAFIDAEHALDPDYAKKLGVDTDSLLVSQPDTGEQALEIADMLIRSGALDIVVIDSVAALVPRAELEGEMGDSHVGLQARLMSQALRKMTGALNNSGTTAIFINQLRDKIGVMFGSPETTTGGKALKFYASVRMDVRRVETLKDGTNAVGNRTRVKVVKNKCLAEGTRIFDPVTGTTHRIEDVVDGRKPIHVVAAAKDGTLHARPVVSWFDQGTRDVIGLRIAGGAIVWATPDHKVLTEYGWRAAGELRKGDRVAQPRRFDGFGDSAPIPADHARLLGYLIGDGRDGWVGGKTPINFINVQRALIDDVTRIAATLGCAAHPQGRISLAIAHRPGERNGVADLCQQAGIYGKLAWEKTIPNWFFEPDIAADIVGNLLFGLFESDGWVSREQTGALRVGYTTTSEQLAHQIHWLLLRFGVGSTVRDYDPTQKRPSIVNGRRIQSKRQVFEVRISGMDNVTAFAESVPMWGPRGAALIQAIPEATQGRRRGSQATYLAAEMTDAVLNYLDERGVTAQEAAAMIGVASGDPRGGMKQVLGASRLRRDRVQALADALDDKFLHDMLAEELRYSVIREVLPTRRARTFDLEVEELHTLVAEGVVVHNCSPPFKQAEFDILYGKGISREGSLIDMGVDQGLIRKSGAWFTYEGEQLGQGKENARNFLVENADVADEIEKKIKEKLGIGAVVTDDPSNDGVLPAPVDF
Mtb betalactam: beta-lactam sensitization of Mtb H37Rv. M. tuberculosis H37Rv growth with meropenem, percent inhibition; hits of this screen are not shown here. 330,000 tested, 0.27% active. inhibition, % at 25 µM;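 active = about 74% or more and at least 40 points above the plate without the antibiotic, then above 30% in a dose series; inconclusive = first-round hits that could not be retested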;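 note: growth measured after seven days incubation then overnight dye step; 0% = bacteria only wells and 100% = bacteria with antibiotic; twin plates without the antibiotic show which effects depend on it; some results filed as inactive read as strong as hits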
Arbovirus anti repeat: second read-out of Arbovirus anti, no call of its own (marks repeat the call); inhibition, %; measured here: 10K subset replicate screen; many hits read low in the repeat;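 first of two repeat runs on a subset; 0% = infected and 100% = uninfected wells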
The depositor's hits bear a star; ? = inconclusive; / = not tested or not shown.

SMILES	YopH inh	Arbovirus anti	Mtb H37Rv	RecA splice inh	Mtb betalactam	others
CCC(C)NS(=O)(=O)c1ccc(NC(=O)CCC2CCCCC2)cc1 (stereo not given)	23.6	9.4	-4.9%	1.8	2.6
Cc1cc(C)cc(Nc2ccc(C(=O)O)cc2[N+](=O)[O-])c1	/	/	/	-1.3	-0.9
COc1ccc(NC(=O)c2c(-c3ccccc3)noc2C)c(OC)c1	-23.2	21.2	-4.3%	-0.2	-10.9	Arbovirus anti repeat=-5.0
Cc1nonc1OCCNCc1c(C(=O)N2CCCCCCC2)nc2ccc(Cl)cn12	/	4.2	3.9%	/	1.0
CN(Cc1nc(-c2cnccn2)no1)CC1CCN(Cc2ccccc2)CC1	/	0.1	0.8%	-0.7	-4.9
Cc1ccc(-c2nc(C)sc2CC(=O)Nc2nnc(C)s2)cc1	/	6.7	-6.2%	1.9	-2.9
COc1ccccc1NC(=O)C1CC(C(C)C)OC1=O (stereo not given)	/	/	/	-1.1	-3.3
NC(=O)c1ccc(NC(=O)COC(=O)c2ccccc2Nc2ccccc2)cc1	/	3.2	-1.2%	-2.3	-3.9
O=C1CSC(=S)N1c1cccc(F)c1	/	/	/	2.8	-1.5
CCCC(O)(c1ccc(OC)cc1)C(CN1CCOCC1)c1ccccc1 (stereo not given)	/	-2.5	-3.3%	-0.1	10.9
O=C(NCc1ccccn1)c1ccccc1-c1ccccc1	/	-2.4	2.9%	-2.1	16.6
C=CCc1cc(Cl)ccc1OCCCNC(C)C	-6.3	-29.6	-8.2%	-0.3	1.6
O=C(O)CCCNc1n[nH]c(=O)[nH]c1=O	/	6.2	-6.7%	0.0	-2.3
Cn1c(=O)c2c(nc(CN3CCOCC3)n2CCN2CCOCC2)n(C)c1=O	-20.6	6.3	-17.2%	-7.1	-8.7
Cc1ccc(SCC(=O)Nc2cccc(C)c2)cc1	/	-0.8	10.9%	-0.2	11.5
COc1cc(NC(=O)[C@H](C)NC(=O)N2CCn3c2nc2ccccc23)cc(OC)c1	/	/	/	1.2	1.4
COCCn1c(SCC(=O)NCC2CCCO2)nc2c(c1=O)SCC2 (stereo not given)	/	/	/	-0.1	-1.6
O=C(Cn1cc(SCc2ccccc2Cl)c2ccccc21)N1CCOCC1	-5.4	26.7	-1.2%	1.6	1.1
Cc1cc(N=NC(=O)c2ccccc2)ccc1O	/	-11.9	3.5%	4.1	3.8
COc1ccc(NC(=O)COc2ccc(/C=N/O)cc2OC)cc1	/	2.6	25.8%	-3.2	16.8
CCOCCCNC(=O)C(NC(=O)c1ccc(=O)[nH]c1)c1ccc(Cl)cc1 (stereo not given)	-48.5	-3.1	0.9%	0.2	-5.3
CC(C)CCNC(=O)NC(=O)CN1C(=O)NC2(CCCCC2)C1=O	-10.8	2.7	1.5%	0.9	-6.2
O=C(N/N=C/c1coc2ccccc2c1=O)c1ccc(Cl)cc1	/	/	/	-2.7	1.6
O=C(Nc1ccccc1Sc1ccccc1)C1CCCO1 (stereo not given)	-26.6	-0.8	7.8%	5.0	3.6
O=c1cc2c(nn1Cc1cccc([N+](=O)[O-])c1)-c1ccccc1CC2	/	4.4	7.9%	4.9	6.3
Cc1c(C=O)c2ccccn2c1C(=O)c1ccccc1	-0.8	7.0	8.7%	2.1	-5.0
O=C(Nc1cc2c3c(c1)CC(=O)N3CCC2)c1ccccc1C(F)(F)F	/	/	/	16.7	-12.1
O=C(Nc1ncc(C(F)(F)F)cc1Cl)c1ccc(S(=O)(=O)N2CCOCC2)cc1	/	8.2	2.5%	-2.0	-2.3
CC(=O)Nc1ccccc1OC(C)C(=O)N1CCC(C)CC1 (stereo not given)	/	5.1	2.8%	1.8	-1.2
Cc1nc(-c2ccccc2)sc1C(=O)CSc1ccc(Cl)cc1	-43.6	-19.6	9.6%	4.7	-2.3
Cc1ccc(-n2c(Cc3ccccc3)n[nH]c2=S)c(C)c1	/	0.3	-2.8%	/	3.2
COc1ccc(C(=O)N2CCOC2CNC(=O)C(=O)NCc2ccccc2Cl)cc1 (stereo not given)	/	/	/	-0.6	-3.7
COc1ccc(C(=O)N2CCCC(C(=O)c3ccccc3OC)C2)cc1OC (stereo not given)	/	/	/	-1.9	-2.1
COc1ccccc1CNC(=O)C1CCCN(S(=O)(=O)c2ccc3c(c2)C(C)(C)C(=O)N3C)C1 (stereo not given)	/	/	/	0.3	0.7
Cc1ccc(-c2cc(C(=O)N3CCN(c4ccc(F)cc4)CC3)c3ccccc3n2)o1	-32.1	-7.8	46.5%	2.4	89.0
CC(=O)Nc1ccc(NC(=O)C(C)OC(=O)c2cc(S(=O)(=O)N3CCOCC3)ccc2Cl)cc1 (stereo not given)	/	/	/	13.2	-8.6
Cc1cc(Nc2ccc(F)cc2F)n2nc(C)nc2n1	-39.0	0.1	-2.4%	-1.3	1.2	Arbovirus anti repeat=1.5
COc1ccc(-c2nnn3c2nc(NCc2ccccc2)c2ccccc23)cc1	/	-0.5	-1.5%	-54.5	2.6
Cc1cc(C(=O)COC(=O)c2cc(Cl)ccc2N)c(C)n1Cc1ccco1	-20.3	6.3	-2.3%	-2.1	3.6
O=C(CN1C(=O)c2cccnc2Oc2ccc(Cl)cc21)NCCc1ccccc1	/	/	/	5.2	?

Ordered by SMILES length (rising): some entries from above
SMILES	YopH inh	Arbovirus anti	Mtb H37Rv	RecA splice inh	Mtb betalactam	others
Cc1c(C=O)c2ccccn2c1C(=O)c1ccccc1	-0.8	7.0	8.7%	2.1	-5.0
COc1ccc(-c2nnn3c2nc(NCc2ccccc2)c2ccccc23)cc1	/	-0.5	-1.5%	-54.5	2.6
CCOCCCNC(=O)C(NC(=O)c1ccc(=O)[nH]c1)c1ccc(Cl)cc1 (stereo not given)	-48.5	-3.1	0.9%	0.2	-5.3

(continued)
SMILES	YopH inh	Arbovirus anti	Mtb H37Rv	RecA splice inh	Mtb betalactam	others
COc1ccc(CC(=O)Nc2cc(Cl)ccc2N2CCCC2)cc1	/	/	/	0.6	0.5
Cc1ccc(NC(=S)N(CCCN(C)C)Cc2cc3cc4c(cc3[nH]c2=O)OCO4)c(C)c1	/	-5.8	-1.2%	-1.7	8.5
COC(=O)c1ccc(C2Nc3ccccc3NC3=C2C(=O)CC(C)(C)C3)cc1 (stereo not given)	/	/	/	-1.5	-11.2
O=C1C2CCCCC2C(=O)N1c1ccc(NC2CCN(Cc3ccccc3)CC2)c([N+](=O)[O-])c1 (stereo not given)	/	-4.2	0.4%	-5.7	3.6
Cc1cccc(/C(N)=N/OC(=O)c2ccccc2Cl)c1	/	6.0	3.8%	4.9	-1.2
COc1ccc(OC)c(S(=O)(=O)NCCC2=CCCCC2)c1	-8.5	3.8	-6.3%	2.4	10.7
COc1ccc(-c2nc(C(F)(F)F)c(OC)o2)cc1OC	44.5	4.4	-0.9%	-4.2	2.1
O=C(Nc1cccc(S(=O)(=O)NC2=NCCCCC2)c1)c1cc(-c2ccco2)nc2ccccc12	/	/	-0.1%	-1.5	0.6
O=C(O)c1nc(-c2ccccc2)n(-c2ccccc2)n1	-28.5	2.4	-8.2%	-1.6	25.7
Cc1cc(-c2nn(-c3ccccc3F)cc2CN2CCCC(C(N)=O)C2)c(C)s1 (stereo not given)	/	3.4	1.3%	-2.0	1.6
O=C(NCCN1C(=O)C2C3C=CC(C3)C2C1=O)N1CCOCC1 (stereo not given)	10.4	1.9	-2.0%	0.0	?	Arbovirus anti repeat=5.2
O=C(COc1ccc(-c2ccccc2)cc1)N1CCCC1	/	1.6	-2.1%	1.0	-1.3
CCCc1c(C)nn(-c2ncccc2[N+](=O)[O-])c1C	/	4.6	7.9%	-2.7	-8.1
CCCc1nc2ccccc2c(=O)n1-c1ccccc1OC	-34.3	8.1	-5.2%	-0.8	-6.1
COc1ccc(/C=N/N2CCN(c3ccccc3)CC2)cc1Br	/	/	/	2.8	0.9
COC(=O)Nc1nnc(SCc2ccc(C)cc2)s1	-0.6	-14.2	-4.6%	-1.5	8.2
COc1ccc(CC(=O)NCC(=O)N/N=C/c2ccc(C)o2)cc1	-31.9	2.5	-5.8%	-0.2	8.1
Nc1nc2c(s1)C(=O)CCC2	-37.0	-2.1	10.5%	-3.9	0.2
NC(=O)c1c(NC(=O)CSc2nnc(-c3ccccc3)n2CC2CCCO2)sc2c1CCC2 (stereo not given)	-44.3	6.3	2.7%	3.0	85.3
CC1CCN(c2c(NCc3ccc(C(=O)N(C)C4CCCCC4)cc3)c(=O)c2=O)CC1	/	/	0.7%	2.4	-7.7
Cc1ccccc1Nc1nc(-c2sc(NC(=O)c3ccc([N+](=O)[O-])cc3)nc2C)cs1	15.0	22.2	8.0%	2.4	66.2
CC(=O)C(Sc1ccc2nnc(-c3ccc(C)cc3)n2n1)C(C)=O	-44.5	-7.5	-0.2%	0.2	0.7	Arbovirus anti repeat=-1.1
COc1ccccc1OC(=O)c1ccc(C)c(S(=O)(=O)N2CCOCC2)c1	/	/	/	4.4	-2.6
CCOC(=O)c1c(NC(=O)CSc2nnc3c(n2)[nH]c2ccccc23)sc2c1CCN(C)C2	-24.9	/	-8.3%	0.8	-5.2
O=C(/C=C/c1ccc2ccccc2n1)N1CCN(S(=O)(=O)c2ccccc2F)CC1	/	/	2.6%	2.0	-6.4
Cc1ccc(OCC(=O)Nc2cccc(-c3nnc(-c4ccccc4)o3)c2)c(C)c1	-7.0	-4.8	0.2%	1.8	-5.2
COCCCNC(=O)CCC(=O)NNc1nc2ccccc2c2nc(-c3ccccc3)nn12	-25.4	-7.9	10.3%	-3.0	0.9
CN(C)N1C(N)=C(C#N)C(c2ccc(Br)cc2)C2=C1CC(C)(C)CC2=O (stereo not given)	/	/	/	-1.7	-2.8
CCn1c(COc2cccc(OC)c2)nnc1SCC(=O)Nc1cccc(OC)c1	-2.6	0.9	-2.9%	-0.6	-10.3
O=C(O)CN(c1ccccc1)C1SC(=O)NC1=O (stereo not given)	-22.0	-4.7	0.1%	5.6	-13.7
CC(C)N1C(=O)C2C(C(=O)NC3CCCCC3)C3C=CC2(O3)C1C(=O)NC1CCCC1 (stereo not given)	18.6	-0.5	-2.3%	0.3	-3.1
Cc1ccc(-n2nc3c(c2NC(=O)c2cc4ccccc4o2)CS(=O)(=O)C3)cc1	/	/	/	2.2	-5.2
CCOC(=O)c1c(C)[nH]c(C)c1S(=O)(=O)N1CCC(c2ccccc2)C1 (stereo not given)	/	/	/	3.9	-3.9
O=C(NCC1(c2ccccc2)CCOCC1)c1cccs1	/	7.3	1.8%	9.1	-8.7
Cc1sc2ncn(CC(=O)NCCCN3CC(C)CC(C)C3)c(=O)c2c1S(=O)(=O)N1CC(C)CC(C)C1 (stereo not given)	/	/	/	1.6	-0.4

Compounds from the list above with an aryl thioether with sulfur outside any ring:
SMILES	YopH inh	Arbovirus anti	Mtb H37Rv	RecA splice inh	Mtb betalactam	others
Cc1ccc(SCC(=O)Nc2cccc(C)c2)cc1	/	-0.8	10.9%	-0.2	11.5
COCCn1c(SCC(=O)NCC2CCCO2)nc2c(c1=O)SCC2 (stereo not given)	/	/	/	-0.1	-1.6
O=C(Cn1cc(SCc2ccccc2Cl)c2ccccc21)N1CCOCC1	-5.4	26.7	-1.2%	1.6	1.1
O=C(Nc1ccccc1Sc1ccccc1)C1CCCO1 (stereo not given)	-26.6	-0.8	7.8%	5.0	3.6
Cc1nc(-c2ccccc2)sc1C(=O)CSc1ccc(Cl)cc1	-43.6	-19.6	9.6%	4.7	-2.3
COC(=O)Nc1nnc(SCc2ccc(C)cc2)s1	-0.6	-14.2	-4.6%	-1.5	8.2
NC(=O)c1c(NC(=O)CSc2nnc(-c3ccccc3)n2CC2CCCO2)sc2c1CCC2 (stereo not given)	-44.3	6.3	2.7%	3.0	85.3
CC(=O)C(Sc1ccc2nnc(-c3ccc(C)cc3)n2n1)C(C)=O	-44.5	-7.5	-0.2%	0.2	0.7	Arbovirus anti repeat=-1.1
CCOC(=O)c1c(NC(=O)CSc2nnc3c(n2)[nH]c2ccccc23)sc2c1CCN(C)C2	-24.9	/	-8.3%	0.8	-5.2
CCn1c(COc2cccc(OC)c2)nnc1SCC(=O)Nc1cccc(OC)c1	-2.6	0.9	-2.9%	-0.6	-10.3

An excerpt, so the mix of outcomes need not match the whole.
